Compound activity as filed in PubChem BioAssay.
CtBP-E1A blk: blocks the CtBP interaction with E1A; activity change, % (no concentration beside the values); AlphaScreen GST-E1A/His-CtBP binding, 1536-well; hits give low values; control for the full effect not named in the record; 0.49% of 340,000 active; AID 651724; in the data active means activity change below about -65%; inconclusive means about -30% to -65%; inactive means above about -30%; also: % is scaled to controls: 0 for no effect and ±100 for the full control effect; compound concentration not given in the record
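Homogeneous bead-based format: GST-tagged E1A captured on glutathione donor beads, His-tagged CtBP on nickel acceptor beads; compounds precede bead addition by 2 h at 37 °C.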
gsp agonist: activates gsp, the McCune-Albright syndrome mutation | 0.13% of 340,000 active | gsp mutant cells, cAMP HTRF, 30 min; control for the full effect not named in the record | Potency, µM (doses to about 76.9 µM), for the others: at the top dose activation (cAMP increase), hits mostly activators | AID 624287; active = well fitted activation curve with a large enough effect; inconclusive = small, poorly fitted or top-dose-only effect, or another doubt; inactive = no such curve, though single readings can be large or run the other way; cell line not stated here;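 also: phosphodiesterase inhibitor Ro 20-1724 added with compounds to block cAMP breakdown; potency is read from the fitted curve at half-maximal effect; nearly all actives have a fitted effect of over 60% in size; about a fifth of the inactives were tested at one dose only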
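Cells in DMEM/10% FBS with G418 were pretreated with compounds in DMSO plus […] (300 uM stock) for 30 min at 37C. cAMP was measured by HTRF (cAMP-d2 plus anti-cAMP antibody-K) after 30 min at room temperature.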
D2 potentiator: positive allosteric modulators of human D2 dopamine receptor | DiscoveRx D2 beta-arrestin cells, luminescence, 90 min; 100% = 57 uM dopamine signal | potentiation, % (test concentration not listed) | 0.23% of 360,000 active; active = potentiation of 50% or more; inconclusive = 30% to 50%; inactive = 30% or less;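 also: compound concentration not given in the record; tested on top of an EC20 dose of dopamine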
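PathHunter beta-arrestin assay in DiscoveRx D2 cells. Compounds were added with an EC20 of dopamine (50 nM final) for 90 min at 37 deg C. Luminescence was read 1 h after detection reagent, with 57 uM dopamine as the EC100 control.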
D2 ag: human D2 receptor agonism in beta-arrestin assay; P14416; DiscoveRx PathHunter D2 beta-arrestin, luminescence, 90 min; 100% = 57 uM dopamine signal; activation, % (test concentration not listed); 0.084% of 360,000 active; AID 624465; in the data active = activation above about 40%; inconclusive = about 15% to 40%; inactive = below about 15%; also: compound concentration not given in the record; the text of the record calls up to 30% inactive
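DiscoveRx PathHunter D2 beta-arrestin cells (2,100/well) attached overnight, then compound-stimulated 90 min at 37 C in HBSS/10 mM HEPES/0.1% Tween-20 buffer; beta-galactosidase complementation read by luminescence after 1 h at ambient temperature. Dopamine 57 uM final (EC100) as control.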
gsp antagonist: antagonists of gsp mutant (McCune-Albright syndrome); gsp-mutant cells, cAMP HTRF, 30 min; control for the full effect not named in the record; Potency, µM (titrated, usually from 76.9 µM), for inactives: top-dose activity change, negative = inhibition, actives largely listed as inhibitors; 0.4% of 340,000 active; AID 624288; active = falling curve of any shape with a large fitted effect; inconclusive = falling curve, mostly with a smaller effect; inactive = flat or rising curve; cell line not stated here;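 also: intracellular cAMP measured with PDE inhibitor Ro 20-1724 present during compound exposure; potency is read from the fitted curve at half-maximal effect; % is scaled to controls: 0 for no effect and ±100 for the full control effect; nearly all actives have a fitted effect of over 65% in size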
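Measurement of cellular cAMP by homogeneous time-resolved fluorescence following a 30 min compound exposure at 37C. The PDE inhibitor […] was present throughout; the assay buffer was DPBS with 0.05% BSA and 0.005% Tween 20.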
Six1-Eya2 inh: inhibitors of human Six1/Eya2 interaction; Q15475+O00167; activity change, % (test concentration not listed); 0.56% of 360,000 active; AlphaScreen GST-Six1/His-Eya2 binding, biochemical; hits give low values; control for the full effect not named in the record; in the data active = activity change below about -65%; inconclusive = about -30% to -65%; inactive = above about -30%; also: % is scaled to controls: 0 for no effect and ±100 for the full control effect; compound concentration not given in the record
Target sequence (O00167 whole entry, looked up): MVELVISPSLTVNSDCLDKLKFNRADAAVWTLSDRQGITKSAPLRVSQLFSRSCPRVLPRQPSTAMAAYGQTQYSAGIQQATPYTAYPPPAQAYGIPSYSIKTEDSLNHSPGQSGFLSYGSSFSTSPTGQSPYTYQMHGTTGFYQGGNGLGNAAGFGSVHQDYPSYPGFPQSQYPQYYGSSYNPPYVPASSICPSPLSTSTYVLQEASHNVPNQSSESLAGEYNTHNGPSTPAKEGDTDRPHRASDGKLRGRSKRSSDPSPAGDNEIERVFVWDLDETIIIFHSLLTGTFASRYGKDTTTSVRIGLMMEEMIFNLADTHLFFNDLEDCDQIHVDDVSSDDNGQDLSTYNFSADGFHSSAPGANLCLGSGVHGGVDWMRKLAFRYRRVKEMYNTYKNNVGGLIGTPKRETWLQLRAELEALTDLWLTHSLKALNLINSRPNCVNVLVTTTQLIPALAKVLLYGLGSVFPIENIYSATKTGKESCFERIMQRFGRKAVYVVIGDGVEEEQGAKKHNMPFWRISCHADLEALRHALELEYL
Target sequence (Q15475 whole entry, looked up): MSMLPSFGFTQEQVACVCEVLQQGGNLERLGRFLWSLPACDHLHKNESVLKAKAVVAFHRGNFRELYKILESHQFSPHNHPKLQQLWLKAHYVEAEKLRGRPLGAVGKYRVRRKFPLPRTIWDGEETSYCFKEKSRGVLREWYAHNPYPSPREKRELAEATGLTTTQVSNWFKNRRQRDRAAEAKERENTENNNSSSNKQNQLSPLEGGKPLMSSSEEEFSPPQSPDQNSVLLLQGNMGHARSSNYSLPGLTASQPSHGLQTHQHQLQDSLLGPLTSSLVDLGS
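GST-Six1 + His-Eya2 (5X stock: 250/500 nM); Tris pH 8.0, 300 mM NaCl, 0.05% BSA, 0.02% Tween 20; GSH donor/Ni acceptor beads; 1 h 37 °C dark; AlphaScreen readout.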
An asterisk follows results filed as active; ? = inconclusive; nt = no result given; [ ] = another dose, or the depositor's remark.

CtBP-E1A blk,gsp agonist,D2 potentiator,D2 ag,gsp antagonist,Six1-Eya2 inh,molecule
-2,0%,2,-0.6,2%,3,N#CC1=C(N)Nc2ncnn2C1c1ccc(F)cc1 (stereo not drawn)
-8,-4%,2,-2.5,-25%,-20,Cc1ccnc2c(N3C(=O)C4C5c6ccccc6C(c6ccccc65)C4C3=O)cccc12 (stereo not drawn)
6,-2%,-8,0.4,7%,6,CC(=O)c1ccc(NC(=O)CO/N=C(\C)c2cccs2)cc1
3,nt,-7,-2.7,nt,7,CCCCN(C)C(=O)c1sc(=O)n(Cc2cc(Cl)ccc2OC)c1C
5,20%,-6,11,12%,9,COc1cc(-c2noc(-c3cccc(Cl)c3)n2)cc(OC)c1OC
-12,-8%[15.4 µM],-43,-2.0,14%,1,O=C(CCNS(=O)(=O)c1ccc(Br)cc1)NC1CCN(Cc2ccccc2)CC1
0,-17%[15.4 µM],-6,3.4,12%,1,CC(C)N(C(=O)CS(=O)(=O)c1ccc(Cl)c(Cl)c1)C(C)C
-2,?,1,-0.8,5%,-2,COCCN(C(=O)Nc1ccc(OC)cc1OC)C1CCN(C(C)C)CC1
6,?,-3,4.5,15%,4,COCCn1c(Cc2ccccc2)nnc1SCC(=O)N1CCCC1=O
-1,-4%[15.4 µM],-11,-1.1,3%,-2,CCOC(=O)C1CCN(CCC(=O)Nc2ccc(Br)cc2)CC1
-6,4%[15.4 µM],5,-2.4,-28%,-11,CN(C)c1ccc(N=Nc2ccc(C(=O)O)cc2)cc1
-16,nt,-12,0.6,-2%,-4,O=C(C1=C[C@H](C2CC2)C[C@H](OCc2ccc(CO)cc2)O1)N1CCN(Cc2ccccc2)CC1
-5,-29%,0,-1.0,9%,-1,CC(C)(C)c1ccc(C(=O)NCc2nnc(SCC(=O)NCC3CCCO3)o2)cc1 (stereo not drawn)
-25,-22%,2,2.9,2%,-20,CNC(=S)N(C1=NCC(c2ccc([N+](=O)[O-])cc2)S1)c1ccccc1 (stereo not drawn)
6,-25%[15.4 µM],-24,-11,0%,?,C/C(CCC(C)C)=N\Nc1cc(C)c2ccccc2n1
0,nt,-2,1.4,-1%,-9,O=C(NCc1ccccc1)c1nc[nH]c1C(=O)N1CCN(c2ccccc2)CC1
1,13%,-6,-3.3,-1%,-2,COc1ccc(CNC(=O)CS(=O)Cc2nc(-c3ccccc3C)oc2C)cc1 (stereo not drawn)
2,4%,10,1.7,-15%,-3,Cc1ccc(S(=O)(=O)Nc2ccncc2)c(C)c1N(C)S(=O)(=O)c1ccc(F)cc1
6,-42%[inhibitor],-4,-7.4,-8%,-6,O=[N+]([O-])c1ccc(N2CCOCC2)cc1N1CCCCC1
-1,24%,-12,-0.3,-9%,2,CCn1c2ccccc2c2cc(NC(=O)C(C)Oc3ccccc3)ccc21 (stereo not drawn)
-7,-3%,-26,-2.8,-18%,-2,COc1cccc(NC(=O)COC(=O)CNS(=O)(=O)c2c(F)cccc2F)c1
-10,-1%,8,-4.0,?,3,CN(C)C(CNC(=O)c1cc(S(=O)(=O)N(C)c2ccc(F)cc2)ccc1Cl)c1cccs1 (stereo not drawn)
-19,-10%,-2,-7.4,-10%,20,COCCn1c(SCc2ccc(F)cc2)nc2c1c(=O)[nH]c(=O)n2C
-4,-5%,18,-1.4,-5%,4,CC12CCC(=O)N1C(C(=O)Nc1nc(-c3ccc(F)c(F)c3)cs1)CS2 (stereo not drawn)
0,13%,nt,-1.3,nt,-3,CCN1C(=O)[C@H]2[C@@H](c3ccc(C)cc3)N[C@]3(CCCN(Cc4cccn4C)C3=O)[C@H]2C1=O
5,-66%[inhibitor],-2,-1.1,10%,-3,COC(=O)C1C(=O)c2c([nH]c(C(=O)OC3CCCCC3)c2C)CC1C (stereo not drawn)
-7,?,-5,-1.4,5%,-3,Cc1nc2nc(C)c(CCC(=O)N3CCN(c4ccccn4)CC3)c(C)n2n1
4,16%[15.4 µM],3,2.0,3%,-4,O=C(COC(=O)C1(c2ccc(F)cc2)CCCC1)NCc1ccco1
1,10%,-2,-1.1,-1%,4,Cc1cc(C)c(NS(=O)(=O)c2ccccc2)c(C)c1NS(=O)(=O)c1ccccc1
6,-2%,-21,-2.7,9%,3,CC(=O)c1ccc(C(=O)N2CCCC(Nc3ccccc3)C2)s1 (stereo not drawn)
2,-3%[15.4 µM],-3,-0.9,-6%,-5,N#Cc1c(SCC(=O)O)nc(N2CCOCC2)c2c1CCCC2
4,-1%,-9,-3.9,-1%,-4,O=C(Nc1cccc(F)c1)C1CCN(C(=O)c2ccco2)CC1
5,0%[15.4 µM],-6,-5.1,-5%,-9,C/C(=N\NC(=O)CN1CCN(c2ccc(F)cc2)CC1)c1ccco1
-4,-2%[15.4 µM],-12,-17,1%,3,Cc1ccc(C(C)C)c(OCc2nn(CC(=O)c3ccc(OC(F)F)cc3)c3[n+]2CCCCC3)c1
3,-2%,6,-1.1,-3%,-1,Cn1c(SCC(N)=O)nnc1C1CCN(C(=O)NC2CCCCC2)CC1
2,-6%,1,-1.0,6%,-3,N[C@@H](Cc1ccccc1)c1nnc(SCc2ccccc2Cl)o1
7,1%,-1,5.9,6%,14,CSC(=Nc1ccccc1)Nc1ccccc1
6,-10%,-13,-3.4,-5%,2,Cc1cc(N)nc(=O)n1C1CC(O)C(CO)O1 (stereo not drawn)
nt,3%,-9,-3.5,5%,-10,O=C(NCCN1CCN(c2cccc(Cl)c2)CC1)Nc1ccccc1
nt,-23%,-10,-0.5,5%,5,O=C(CNC(=O)c1ccc(Br)o1)NCC1COc2ccccc2O1 (stereo not drawn)
1,nt,3,-5.1,nt,12,CCCNC(=O)c1cc(C2CCCCN2C(=O)c2cc(F)ccc2C)on1 (stereo not drawn)
-11,?,-9,-1.1,-18%,-2,CCN=C(Nc1ccc2c(c1)OCO2)SC1CC(=O)N(c2ccc(OC)cc2)C1=O (stereo not drawn)
8,-55%[inhibitor],-3,-3.0,18%,-4,N#C/C(C(=O)N1CCCC1)=C1/N=C(N)c2ccccc21
-1,-14%,0,0.5,0%,-5,CCOC(=O)CN1C(=O)N[C@@H](c2cccs2)C(C(=O)OC)=C1C
5,-3%[15.4 µM],0,-0.9,-4%,-14,CCc1cc2ccc(C)cc2nc1SCC(=O)Nc1cc(C)on1
-3,nt,-13,5.1,nt,7,O=C(NCC1CC1)c1cccc2c(-c3ccc(F)c(F)c3)coc12
-12,?,-9,-2.0,?,-9,Cc1[nH]c2ccccc2c1CCN(Cc1cccnc1)C(=S)Nc1cccc(F)c1
-8,15%,-3,-1.7,5%,-3,Cc1ccc(C)c(CSc2nnc([C@@H]3CCCN3)o2)c1
-8,2%[15.4 µM],-4,-1.7,?,-1,CC1CN(c2ncc(/C=N/NC(=O)c3ccccc3O)s2)CC(C)O1 (stereo not drawn)
5,nt,-9,-0.7,nt,7,CN(C)C(=O)CNc1ccn2nc(-c3cccc(OCCN4CCOCC4)c3)cc2n1
3,-3%,-10,-4.1,-12%,0,O=C(NC(=S)N1CCN(c2ccccc2)CC1)c1c(F)cccc1F
nt,8%,2,-2.4,3%,-1,CCOc1ccc(NC(=O)COC(=O)c2ccc(S(=O)(=O)N3CCOCC3)cc2)cc1
0,-20%,-3,-8.5,-8%,-1,COc1ccc(C2=NS(=O)(=O)N(C)C(C(=O)N3CCCCC3C)=C2)cc1 (stereo not drawn)
2,?,18,1.2,16%,7,FC(F)(F)c1nnc2ccc(N3CCCCCC3)nn12
-5,nt,-5,-0.8,12%,-4,C[C@@H]1CN([C@H](C)CO)C(=O)c2cc(NC(=O)Nc3ccc4c(c3)OCO4)ccc2O[C@H]1CN(C)Cc1ccncc1
3,nt,nt,1.5,?,3,Cc1ccc(C)c(N2CCN(C(=O)CCc3nc(-c4ccccc4C(F)(F)F)no3)CC2)c1

More structures follow:
CtBP-E1A blk,gsp agonist,D2 potentiator,D2 ag,gsp antagonist,Six1-Eya2 inh,molecule
6,?,-2,-4.6,15%,8,COc1cc(CCC(=O)N2CC(C)OC(C)C2)cc(OC)c1OC (stereo not drawn)
-2,-14%,-13,-0.7,-15%,2,CCOC(=O)c1nc(C)n(-c2cc(Cl)cc(Cl)c2)n1
6,-12%,-4,6.8,-16%,2,Cc1ccc(NC(=O)c2cccc(N3C(=O)C4C5C=CC(C5)C4C3=O)c2)cc1C (stereo not drawn)
nt,-14%,-6,7.4,6%,-1,CC(=O)Nc1ccc(NC(=O)CCc2ccc(C)o2)cc1
-1,-14%,-8,-1.8,2%,-2,COc1cc(C2NC(=S)NC(c3ccccc3)=C2C(C)=O)cc(Cl)c1OCC(=O)O (stereo not drawn)
-1,23%,-10,-3.1,-10%,-2,Cn1c(SCCOc2ccccc2Cl)nnc1-c1cccs1
0,3%,-6,-5.7,-10%,-3,Cc1ccc2nc(SC(C)C(=O)NCc3ccco3)[nH]c2c1 (stereo not drawn)
?,15%,-14,4.8,-5%,-22,O=C(CNc1ccccc1)N/N=C/c1c(O)ccc2ccccc12

3 neighbouring compounds from above, quoted:
CtBP-E1A blk,gsp agonist,D2 potentiator,D2 ag,gsp antagonist,Six1-Eya2 inh,molecule
6,?,-2,-4.6,15%,8,COc1cc(CCC(=O)N2CC(C)OC(C)C2)cc(OC)c1OC (stereo not drawn)
-2,-14%,-13,-0.7,-15%,2,CCOC(=O)c1nc(C)n(-c2cc(Cl)cc(Cl)c2)n1
6,-12%,-4,6.8,-16%,2,Cc1ccc(NC(=O)c2cccc(N3C(=O)C4C5C=CC(C5)C4C3=O)c2)cc1C (stereo not drawn)

(more compounds)
CtBP-E1A blk,gsp agonist,D2 potentiator,D2 ag,gsp antagonist,Six1-Eya2 inh,molecule
4,nt,-7,-0.6,-4%,5,O=C(C[C@@H]1C/C=C\CC[C@@H](Cc2ccc(F)cc2)C(=O)OC[C@@H](Cc2ccccc2)NC1=O)NCCO
-2,1%[15.4 µM],-4,2.9,8%,2,S=C(NCc1cccnc1)Nc1ccc(Cl)cc1Cl
8,-3%,-21,-4.1,15%,6,CCCn1c(N)c(C(=O)CSc2nnc3ccccn23)c(=O)n(C)c1=O
0,3%,3,12,?,-5,O=C(Nc1ccccc1N1CCOCC1)c1cccc(NS(=O)(=O)c2ccc(F)c(F)c2)c1
0,3%,-18,-1.2,16%,-3,O=C(NCc1cn2ccsc2n1)Nc1ccc(Cl)cc1
7,3%,-5,-1.7,16%,6,Cc1ccc(N(C(=O)CNC(=O)c2ccco2)C(C(=O)NC2CCCC2)c2cccnc2)cc1C (stereo not drawn)
-4,-1%[15.4 µM],2,-7.2,7%,5,CCCN1C(=O)/C(=C\c2nc3ccccc3c(=O)[nH]2)c2ccccc21
8,-9%,6,-2.9,5%,17,CCc1c(C(C)S(=O)(=O)c2ccc(C)cc2)[nH]c(=O)n1-c1ccc(C)cc1 (stereo not drawn)
-10,15%,-13,-3.0,19%,1,COc1ccc(NC(=O)Nc2ccc(C(=O)N3CCOCC3)cc2)cc1OC
